Source: PubChem BioAssay
miR-21 reporter – miR-21 reporter, rising signal; HeLa miR-21 FLuc reporter, luciferase, 48 h; Potency, µM (highest dose often 38.3 µM), without a hit: at the highest dose reporter change, positive = more light; 340,000 tested, under 10 active; AID 2288; active = well fitted rising curve with a large enough effect; inconclusive = small, poorly fitted or top-dose-only effect; inactive = no such curve, though single readings can be large or run the other way;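 also: % of control where 0% means no effect; miR-21 action dims this reporter so a rising signal means less miR-21 action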
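Luminescence from a firefly luciferase reporter carrying a miR-21 binding site downstream, stably expressed under a CMV promoter in HeLa cells that make miR-21 endogenously, reports miRNA modulation after 48 h compound exposure up to approximately 40uM final.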
GLA inh pH 4.5 – alpha-galactosidase A (human) inhibition, pH 4.5 | activity change, negative = inhibition, % at 105 µM | 230,000 tested, under 10 active | AID 1467 | purified enzyme, 4-MU-alpha-Gal fluorescence, pH 4.5 | P06280; inconclusive = small, poorly fitted or top-dose-only inhibition, or a rising curve; inactive = flat fitted curve, though single readings scatter; no compound was filed as active;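 also: 0% = full activity with enzyme and -100% = basal without enzyme; dose as in the result columns while the protocol names 77 µM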
Target sequence (P06280 whole entry, looked up): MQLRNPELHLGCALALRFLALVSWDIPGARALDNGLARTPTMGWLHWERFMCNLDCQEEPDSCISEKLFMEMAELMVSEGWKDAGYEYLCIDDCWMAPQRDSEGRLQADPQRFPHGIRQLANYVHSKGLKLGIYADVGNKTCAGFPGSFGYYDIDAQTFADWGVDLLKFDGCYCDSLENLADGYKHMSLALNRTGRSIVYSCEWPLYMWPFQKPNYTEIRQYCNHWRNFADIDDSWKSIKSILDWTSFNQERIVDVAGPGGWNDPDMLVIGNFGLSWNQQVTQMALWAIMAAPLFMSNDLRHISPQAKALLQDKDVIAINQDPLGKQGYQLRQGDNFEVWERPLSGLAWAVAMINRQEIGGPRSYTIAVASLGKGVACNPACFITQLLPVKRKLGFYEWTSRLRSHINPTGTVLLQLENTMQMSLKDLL
Rango-impB inh – inhibitors of Rango-importin beta complex formation; Potency, µM (series often up to 92.2 µM), inactives show at the top dose inhibition of complex formation; Rango CFP/YFP FRET sensor + importin beta, 45 min; 340,000 compounds, 0.031% hits; Q14974; active = rising FRET ratio curve, often small or poorly fitted; inconclusive = mostly compound fluorescence or quenching in the first reads; inactive = flat curves in all reads;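 also: potency is read from the fitted curve at half-maximal effect; 0% = DMSO wells and 100% = buffer wells lacking importin beta; nearly all actives have a fitted effect of over 15% in size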
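FRET biosensor (snurportin 1 IBB flanked by EYFP and cerulean), 50 nM, with compound 5 min, then 0.125 microM importin beta in PBS, 1 mM DTT, 0.02% Tween-20, 0.1% BSA. CFP/YFP ratio read after 45 min at room temperature; pre-read flags interference.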
Rango dissoc inh – inhibition of RanGTP-driven Rango-importin beta dissociation; O95149+P62826; Biochemical FRET Rango-importin beta, RanGTP-induced dissociation; Potency, µM (titrated, usually from 46.1 µM), for inactives: at the top dose activity change, negative = inhibition; 340,000 compounds, 0.071% hits; active means falling FRET ratio curve, often poorly fitted, with flat reads before Ran was added; inconclusive means other falling curves, or compound fluorescence or quenching; inactive means flat or rising ratio curve;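 also: potency is read from the fitted curve at half-maximal effect; % of control where 0% means no effect; nearly all actives have a fitted effect of over 45% in size; -100% = wells without RanGTP and RCC1; the record marks most hits as doubtful in a second field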
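Rango (0.1 uM)–importin beta (0.25 uM) complex; RanGTP-RCC1 trigger; 45 min RT; CFP/YFP FRET read.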
The depositor's hits bear a star; ? = inconclusive; . = not tested or not shown; [ ] = another dose, or the depositor's remark. This is a subset, so the mix of outcomes need not match the whole.

Sample of the layout (3 entries):
Labels used below – A = miR-21 reporter; B = GLA inh pH 4.5; C = Rango-impB inh; D = Rango dissoc inh
Molecule: O=C(CN1CCN(c2ccccn2)CC1)NC1CCCCC1
  A: -5%	B: 5	C: -2.9%	D: -17%

Molecule: O=C(Nc1nc(-c2ccc(S(=O)(=O)N3CCCCCC3)cc2)cs1)c1cccs1
  A: 19%	B: -8	C: ?	D: -16%

Molecule: O=C(CSc1ccccc1)N1CCN(C(=O)c2ccco2)CC1
  A: -7%	B: 8	C: -1.2%	D: 28%

This part in full (from the top)
Labels used below – A = miR-21 reporter; B = GLA inh pH 4.5; C = Rango-impB inh; D = Rango dissoc inh
Molecule: O=C(CN1CCN(c2ccccn2)CC1)NC1CCCCC1
  A: -5%	B: 5	C: -2.9%	D: -17%

Molecule: O=C(Nc1nc(-c2ccc(S(=O)(=O)N3CCCCCC3)cc2)cs1)c1cccs1
  A: 19%	B: -8	C: ?	D: -16%

Molecule: O=C(CSc1ccccc1)N1CCN(C(=O)c2ccco2)CC1
  A: -7%	B: 8	C: -1.2%	D: 28%

Molecule: O=C(Nn1cnnc1)c1ccc(Cl)c([N+](=O)[O-])c1
  A: 3%	B: 3	C: 0.3%	D: -12%

Molecule: CCCCOC(=O)CCn1c(=S)oc2ccccc21
  A: -5%	B: 7	C: 0.2%	D: -14%

Molecule: COc1ccc(CN2CCN(C3CCOCC3)CC2CCO)c(C)c1C (configuration not stated)
  A: 1%	B: 3	C: -0.9%	D: 13%

Molecule: CN1CCN(CCCNC(=O)c2ccc(/C=C3\Sc4ccccc4N(Cc4ccc(F)cc4)C3=O)cc2)CC1
  A: -33%	B: -4	C: ?	D: ?

Molecule: CCOC(=O)C1NC(=O)CC1c1ccccc1 (configuration not stated)
  A: -3%	B: 5	C: 2.9%	D: -16%

Molecule: COc1ccc(S(=O)(=O)N2CCC(NC(=O)N3CCOCC3)CC2)cc1
  A: 0%	B: 5[21.1 µM]	C: 0.2%	D: -12%

Molecule: CCCCC(=O)Nc1ccc2c(c1)nc(CCN1CCN(C)CC1)n2C
  A: -2%	B: -17	C: 6.6%	D: 10%

Molecule: Cc1cc(Cl)ccc1OCC(O)CNCCc1ccc(S(N)(=O)=O)cc1 (configuration not stated)
  A: -10%	B: .	C: -3.6%	D: 10%

Molecule: O=C(COC(=O)CN1C(=O)C2CCCCC2C1=O)Nc1ccc(S(=O)(=O)N2CCOCC2)cc1 (configuration not stated)
  A: -1%	B: 1	C: -1.4%	D: -12%

Molecule: CCOC(=O)c1cccc(NC(=O)CCc2nnc3ccc(N4CCN(C)CC4)nn23)c1
  A: -4%	B: .	C: 5.7%	D: 12%

Molecule: Cc1occc1C(=O)NC1CCCCCC1
  A: -25%	B: -8	C: 0.0%	D: -2%

Molecule: CCOc1ccc(C(CC(=O)O)NC(=O)C2c3ccccc3Oc3ccccc32)cc1 (configuration not stated)
  A: -5%	B: 1	C: -1.1%	D: -8%

Molecule: CC(C)c1cc(C(=O)N2CCCC(N3CCN(c4ccc(F)cc4)CC3)C2)no1 (configuration not stated)
  A: 0%	B: .	C: -1.2%	D: -20%

Molecule: Cc1noc(C)c1COC(=O)C1CC(O)CN1S(=O)(=O)c1ccc(Cl)cc1 (configuration not stated)
  A: 1%	B: -2	C: -1.1%	D: -13%

Molecule: Cc1c(-c2cc(Br)ccc2O)nc2cc3c(cc2c1C)OCO3
  A: -32%	B: .	C: ?	D: ?

Molecule: O=C(CC1SC(N2CCCCC2)=NC1=O)Nc1cccc(C(=O)NCc2ccc(F)cc2)c1 (configuration not stated)
  A: .	B: .	C: 0.5%	D: 8%

Molecule: O=C(O)c1cccc(N2C(=O)/C(=C/c3ccc(SCc4ccc(Cl)cc4)o3)SC2=S)c1
  A: 14%	B: -16	C: 2.7%	D: -15%

Molecule: C=CCn1c(CSc2nnc(-c3ccccc3)n2C)n[nH]c1=S
  A: -1%	B: 6	C: 1.9%	D: 0%

Molecule: COc1ccc(C(=O)NCCOc2cccc(Oc3ccccc3)c2)cc1OC
  A: .	B: .	C: -12%	D: 17%

Molecule: CCn1c(C)[n+](CCCS(=O)(=O)[O-])c2cc(Cl)c(Cl)cc21
  A: 0%	B: -3	C: 4.2%	D: -3%

Molecule: O=C(COc1ccccc1Cl)NCCCN1CCOCC1
  A: -4%	B: 8	C: 0.5%	D: 10%

Molecule: CC1Cc2ccccc2N1c1ncnc2c1nnn2Cc1ccccc1 (configuration not stated)
  A: -3%	B: -2	C: 5.6%	D: -4%

Part of the list above in order of SMILES length, lowest first.
Labels used below – A = miR-21 reporter; B = GLA inh pH 4.5; C = Rango-impB inh; D = Rango dissoc inh
Molecule: O=C(COc1ccccc1Cl)NCCCN1CCOCC1
  A: -4%	B: 8	C: 0.5%	D: 10%

Molecule: COc1ccc(CN2CCN(C3CCOCC3)CC2CCO)c(C)c1C (configuration not stated)
  A: 1%	B: 3	C: -0.9%	D: 13%

Molecule: Cc1cc(Cl)ccc1OCC(O)CNCCc1ccc(S(N)(=O)=O)cc1 (configuration not stated)
  A: -10%	B: .	C: -3.6%	D: 10%

Following part:
Labels used below – A = miR-21 reporter; B = GLA inh pH 4.5; C = Rango-impB inh; D = Rango dissoc inh
Molecule: O=C(Nc1cccc(C(=O)O)c1)Nc1ccc2c(c1)OCO2
  A: -17%	B: .	C: 6.0%	D: 0%

Molecule: CC1(C(=O)O)Sc2[nH]c(=O)sc2C2c3ccccc3OC(=O)C21 (configuration not stated)
  A: 2%	B: 2	C: ?	D: -24%

Molecule: CC(C)(C)c1ccc(Cc2n[nH]c(=S)[nH]c2=O)cc1
  A: -4%	B: .	C: 6.0%	D: 8%

Molecule: O=C(Nc1nc(COc2ccccc2)cs1)C12CC3CC(CC(C3)C1)C2
  A: -7%	B: -17	C: 3.4%	D: 4%

Molecule: CCn1cc(CNC(=O)/C=C/c2ccc([N+](=O)[O-])cc2)cn1
  A: -7%	B: -2	C: 3.8%	D: -20%

Molecule: COc1ccc(/C=C/C(=O)OCC(=O)NC(=O)NC(C)(C)C)cc1
  A: 0%	B: -2	C: -0.9%	D: 4%

Molecule: CCN(CC)C(=O)[C@H]1C[C@H](CC(=O)NCCCn2ccnc2)C(=O)N2CCc3c([nH]c4cc(CCC(=O)N(C)C)ccc34)[C@]12C
  A: .	B: .	C: -0.2%	D: -14%

Molecule: O=C(/C=C/c1c(Cl)nc2ccccn12)Nc1ccc(F)cc1
  A: -15%	B: -6	C: -0.2%	D: 3%

Molecule: O=C(OCC(=O)c1ccc[nH]1)c1ccc(S(=O)(=O)N2CCCCCC2)cc1
  A: -4%	B: -24	C: 1.7%	D: -9%

Molecule: Cc1cccc(CC(=O)Nc2cccnc2)c1
  A: 0%	B: .	C: -4.0%	D: 2%

Molecule: COc1cc(OC)c2c(-c3ccccc3)cc(=O)oc2c1C(CC(=O)N1CCCC1)c1ccc2c(c1)OCO2 (configuration not stated)
  A: 8%	B: -11	C: -1.0%	D: -7%

Molecule: Cc1ccc2nc(N(CCCN(C)C)C(=O)c3cc4ccccc4oc3=O)sc2c1
  A: -7%	B: -8	C: -3.2%	D: 17%

Molecule: O=C(CC(=O)c1ccncc1)c1ccccc1
  A: .	B: .	C: -2.3%	D: 1%

Molecule: COc1ccc(C(=O)OC(C)C(=O)NC2CCCCC2C)cc1S(=O)(=O)N1CCOCC1 (configuration not stated)
  A: .	B: .	C: 0.0%	D: -4%

Molecule: Cc1ccc(/C=C/C(=O)NC2CCCCCCC2)o1
  A: ?	B: 3	C: 4.0%	D: 2%

Molecule: Cc1cc(C)n(CC(C)C(=O)O)n1 (configuration not stated)
  A: 3%	B: 6	C: 1.0%	D: 6%

Molecule: Cc1ccc(O)c(NC(=S)NC(=O)CC(C)C)c1
  A: -66%	B: -18	C: -3.9%	D: 8%

Molecule: COc1ccccc1NC(=S)NC(=O)Cc1ccccc1
  A: .	B: .	C: 3.7%	D: -8%

Molecule: O=[N+]([O-])c1ccc(N2CCN(c3cccc(Cl)c3)CC2)nc1
  A: -7%	B: .	C: -3.6%	D: 3%

Molecule: COc1ccc(C(=O)N[C@H](C(=O)OCC(=O)NC(=O)c2cccn2C)C(C)C)cc1
  A: -2%	B: -3	C: -1.1%	D: 1%

Molecule: CCOc1ccc(Oc2ccc(-c3nnc(-c4ccccc4)o3)cc2[N+](=O)[O-])cc1
  A: -12%	B: -1	C: -1.2%	D: -3%

Molecule: Cc1c(Cl)cccc1Nc1nc(N)nc(CSc2ncccn2)n1
  A: -79%	B: -8	C: -2.3%	D: -13%

Molecule: CCOc1cc(/C=C(\C#N)c2[nH]nc(N)c2C#N)ccc1O
  A: -20%	B: -2	C: ?	D: ?

Molecule: CCOC(=O)c1ccccc1N/C=C1\CCCC1=O
  A: -4%	B: -3	C: 0.5%	D: -5%

Molecule: CN(C)c1nc(N)nc(Cn2ccnc2)n1
  A: 0%	B: -7	C: 0.4%	D: 16%

Labels used below – A = miR-21 reporter; B = GLA inh pH 4.5; C = Rango-impB inh; D = Rango dissoc inh
Molecule: O=C(COC(=O)/C(=C/c1cccs1)c1cccs1)NC(c1ccccc1)c1ccccc1
  A: -2%	B: -2	C: -3.3%	D: -1%

Molecule: CC(NC(=O)COC(=O)c1ccc2ccccc2n1)c1ccccc1 (configuration not stated)
  A: .	B: .	C: 0.1%	D: -8%

Molecule: Cc1ccccc1-c1nc2sc(-c3ccccc3)cc2c(=O)o1
  A: -5%	B: 0	C: 2.9%	D: -9%

Molecule: COC(=O)C1=C(Cn2cnc3ccccc32)NC(=O)NC1c1cc(C)ccc1C (configuration not stated)
  A: 22%	B: -8	C: 5.0%	D: 15%

Molecule: COc1cc(C2NC(=O)NC(C)=C2C(=O)OC2CCCCC2)cc(Cl)c1O (configuration not stated)
  A: -13%	B: .	C: -2.3%	D: -2%

Molecule: Cc1ncc([N+](=O)[O-])n1Cc1ccc(F)cc1
  A: 0%	B: 2	C: -1.5%	D: -9%

Molecule: COc1cc(NS(=O)(=O)c2ccc(NC(=S)NC(=O)c3sc4ccccc4c3Cl)cc2)nc(OC)n1
  A: -15%	B: -8	C: -5.9%	D: -26%

Molecule: O=C(c1cc2cc(Cl)ccc2oc1=O)N1CCCCCCC1
  A: 0%	B: .	C: 0.1%	D: -7%

Molecule: CCOC(=O)c1ccc2nc(C)c3c(c2c1)OC(C)C3 (configuration not stated)
  A: -20%	B: 1	C: -0.1%	D: -1%

Molecule: CC1CCCCN1CC(=O)Nc1ccc(Oc2ccccc2)cc1 (configuration not stated)
  A: -2%	B: -8	C: -0.8%	D: 3%

Molecule: Cc1oc(-c2cccc(F)c2)nc1CN1CCCN(C(=O)c2ccco2)CC1
  A: -2%	B: .	C: 0.8%	D: 15%

Molecule: Cc1cc(C)c(-n2c(SCc3nc4ccccc4s3)n[nH]c2=O)c(C)c1
  A: 23%	B: 0	C: 3.2%	D: 4%

Molecule: COc1ccc(S(=O)(=O)N(C)CC(=O)N2CCN(c3ccc(F)cc3)CC2)cc1OC
  A: -5%	B: -1	C: 4.1%	D: 15%

Molecule: Cc1ccc2oc(-c3ccco3)cc(=O)c2c1
  A: -61%	B: 4	C: -1.4%	D: 1%

Molecule: CC1CCN(S(=O)(=O)c2ccc(NC(=O)CN3C(=O)NC(C)(c4ccccc4)C3=O)cc2)CC1 (configuration not stated)
  A: .	B: .	C: 2.3%	D: -5%

Molecule: O=C(c1ccco1)N1CCN(Cc2ccccc2F)CC1
  A: -7%	B: .	C: -0.5%	D: 7%

Molecule: COc1ccc(NC(=O)Cn2cnc3ccccc3c2=O)cc1OC
  A: -2%	B: 9	C: 1.5%	D: -1%

Molecule: Fc1cccc(NC(=S)N2CCCC2)c1
  A: -4%	B: -12	C: -0.4%	D: 13%

Single entries from the results shown.
`Cc1cc(C)n(CC(C)C(=O)O)n1` (configuration not stated) – GLA inh pH 4.5: 6
`COc1cc(OC)c2c(-c3ccccc3)cc(=O)oc2c1C(CC(=O)N1CCCC1)c1ccc2c(c1)OCO2` (configuration not stated) – Rango dissoc inh: -7%
`COC(=O)C1=C(Cn2cnc3ccccc32)NC(=O)NC1c1cc(C)ccc1C` (configuration not stated) – GLA inh pH 4.5: -8
`CCCCC(=O)Nc1ccc2c(c1)nc(CCN1CCN(C)CC1)n2C` – miR-21 reporter: -2%
`CCOC(=O)c1ccc2nc(C)c3c(c2c1)OC(C)C3` (configuration not stated) – Rango-impB inh: -0.1%
